Screening results (PubChem BioAssay)
CBX7 inh: CBX7 chromodomain binding inhibitors, primary screen, biochemical, AlphaScreen | AID 1224903, 2016 | AlphaScreen His6-CBX7 / biotin-H3K27me3 peptide binding; stronger effect = lower value | normalised signal (fraction of DMSO) (concentration not given with the values) | Chromobox protein homolog 7 (Homo sapiens), O95931 | 66,000 tested, 1.1% active; in the data active = normalised signal below about 0.5;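 note: 100 nL library stock added to about 20 µL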
Target sequence (O95931 whole entry, looked up): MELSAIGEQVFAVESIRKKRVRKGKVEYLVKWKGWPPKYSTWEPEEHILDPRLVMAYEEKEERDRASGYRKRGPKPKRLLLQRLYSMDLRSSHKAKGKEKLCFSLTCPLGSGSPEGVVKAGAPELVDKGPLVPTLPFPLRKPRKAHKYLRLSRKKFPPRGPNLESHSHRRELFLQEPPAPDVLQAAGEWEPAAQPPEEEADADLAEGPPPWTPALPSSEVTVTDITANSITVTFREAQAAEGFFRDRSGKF
CBX7 inh z-score: also measured in CBX7 inh; calls as there; z-score; measured here: z-score of CBX7 signal; some inactives read as strong as hits; reference of the scale not given here;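 same signal on another scale; lower means less binding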
An asterisk follows results filed as active; & = joins results of further samples. An excerpt; rates above refer to the full screens.

SMILES,CBX7 inh,CBX7 inh z-score
CCCN1Cc2cccc(C(=O)NCc3ccc(OC)cc3)c2C1=O,1.05,0.0457
CCc1ccc(NC(=O)c2cccc3c2C(=O)N(Cc2cccnc2)C3)cc1,0.949,-0.0513
CCOCCCN1C(=O)Cn2cccc2C1C(=O)NC1CCCCC1 (stereo not given),0.988,-0.0308
COc1ccc(-n2nnc3c(=O)n(CC(=O)Nc4ccc(C)cc4)cnc32)cc1,1.08,1.49
CCOc1ccc(NC(=O)Cn2cc(S(=O)(=O)c3ccccc3)c(=O)c3cc(Cl)ccc32)cc1,0.992,-0.263
COCCNC(=O)Cc1ccc(NC2=NC3CS(=O)(=O)CC3S2)cc1 (stereo not given),1.12,1.35
CCC(C)NC(=O)c1cnn2c(C)c(Cc3ccccc3C)c(C)nc12 (stereo not given),1.11,3.13
Cc1nc2c(C(=O)NCCC3=CCCCC3)cnn2c(C)c1Cc1ccc(F)cc1Cl,0.949,-1.25
Cc1ccccc1-c1nc(CS(=O)(=O)CC(=O)N2CCc3ccccc32)c(C)o1,1.05,0.976
CCCCN1C(=O)C(O)(CC(=O)c2ccc(C)cc2)c2cc(Br)ccc21 (stereo not given),0.74,-0.292
CC(C)CN(CCNC(=O)c1csc2c1CCCC2)CC(C)C,1.02,0.576
CCCCN(C)C(=O)C1c2cc(OC)c(OC)cc2C(=O)N(C)C1c1ccccc1F (stereo not given),1.01,0.198
Cc1ccc(-n2nc(C)c3c(C)c(CCC(=O)N4CCC(N5CCCCC5)CC4)c(C)nc32)cc1,1.09,1.94
COc1ccccc1CNC(=O)c1cc(=O)[nH]c2ccc(S(=O)(=O)N3CCCCC3)cc12,0.985,-0.164
COc1ccc(/C=C/c2nc3ccccc3c(=O)n2-c2ccc(OC)c(OC)c2)cc1,1.04,0.0376
Cc1ccc2nc(N3CCC(C(=O)NC4CCCC4)CC3)[nH]c2c1,1.04,1.58
Cn1c(C(=O)N2CCCCC2)cc2sccc21,0.968,-0.408
CCc1ccc2nc(N3CCC(C(=O)NCCCN4CCCC(C)C4)CC3)sc2c1 (stereo not given),1.11,2.8
COc1ccc(OC)c(-c2cc(C(=O)N3CCCCC3)no2)c1,1.07,0.557
CC1(C)CC2CC(C)(CN2c2ncnc3c2sc(=S)n3-c2ccccc2)C1 (stereo not given),1.07,0.846
CCc1ccc(Nc2cc(C(=O)NC3CCCC3)c3ccccc3n2)cc1,1.03,0.874
c1cc(-c2nnc(-c3ccncc3)o2)ccn1,1.08,2.2
Cc1cc(C)n2cc(CSc3nc4ccccc4o3)nc2n1,1.16,1.61
COc1ccc(OC)c(NC(=O)Cn2ncc3c2-c2cc(C)ccc2OC3)c1,0.995,-0.133
COCCCNC(=O)CN1CCN(Cc2ccccc2Cl)C1=O,1.08,1.18
COCCN(CCOC)S(=O)(=O)c1ccc(C(=O)Nc2nnc(C3CC3)o2)cc1,0.543,-12.3
COc1ccc2nc(N3CCCC(C(=O)NCCCN4CCC(C)CC4)C3)sc2c1 (stereo not given),1.08,1.28
CCN1C(=O)c2ccccc2S(=O)(=O)c2ccc(C(=O)NCCc3ccc(OC)c(OC)c3)cc21,1.01,0.414
COc1ccccc1CNC(=O)c1nc(-c2ccccc2C)oc1C,0.987,-0.0815
O=C(NCC1COc2ccccc2O1)c1ccc2c(c1)N(Cc1c(F)cccc1Cl)C(=O)CS2 (stereo not given),0.936,-3.02

A different layout for part of the listing above:
Each structure is followed by: CBX7 inh | CBX7 inh z-score
- c1cc(-c2nnc(-c3ccncc3)o2)ccn1
 : 1.08 | 2.2
- Cc1cc(C)n2cc(CSc3nc4ccccc4o3)nc2n1
 : 1.16 | 1.61
- COc1ccc(OC)c(NC(=O)Cn2ncc3c2-c2cc(C)ccc2OC3)c1
 : 0.995 | -0.133
- COCCCNC(=O)CN1CCN(Cc2ccccc2Cl)C1=O
 : 1.08 | 1.18

Back to the main list with the 3 entries that preceded the break.
SMILES,CBX7 inh,CBX7 inh z-score
CCN1C(=O)c2ccccc2S(=O)(=O)c2ccc(C(=O)NCCc3ccc(OC)c(OC)c3)cc21,1.01,0.414
COc1ccccc1CNC(=O)c1nc(-c2ccccc2C)oc1C,0.987,-0.0815
O=C(NCC1COc2ccccc2O1)c1ccc2c(c1)N(Cc1c(F)cccc1Cl)C(=O)CS2 (stereo not given),0.936,-3.02
CCOC(=O)N1CCN(c2c(NCCC(C)C)c(=O)c2=O)CC1,1.07,1.98
CC(=O)c1sc(Nc2ccc(C)c(Cl)c2)nc1C,1.14,2.17
CCOC(=O)N1CCC(NC(=O)c2cc3c(s2)CSC3)CC1,1.09,1.04
CCN1CCN(c2nc(-c3ccccc3F)nc3ccccc23)CC1,0.819,-2.6
O=C(Nc1ccccc1-c1nc2ccccc2s1)c1ccccc1Br,1.18,5.09
COc1cccc(-c2nc(-c3ccc(NC(=O)c4ccccn4)cc3)no2)c1,1.07,2.68
CCCOc1cccc(-c2cc(C(=O)O)c3ccccc3n2)c1,1.11,2.59
CCOC(=O)CNC(c1ccccc1)c1cc(Br)ccc1NC(=O)c1ccccc1 (stereo not given),1.12,3.41
O=C(Nc1cc2c(cc1C(=O)c1ccccc1)OCCO2)c1ccc(Br)cc1,1.06,0.353
CC1CCN(S(=O)(=O)c2ccc(C(=O)Nc3nc(-c4ccccn4)cs3)cc2)CC1,0.962,-1.23
CC(C)c1ccc(NC(=O)CSc2nnc(-c3ccc(Cl)cc3Cl)o2)cc1,0.973&1.18,-0.425&1.98
O=C(Nc1ccc(Br)cn1)Nc1cccs1,1.03,1.23
CCOC(=O)N1CCC(Nc2c(NCc3ccccc3)c(=O)c2=O)CC1,0.983,-0.204
CC1CCCCN1CCCNC(=O)CC(C(=O)N1CCc2ccccc21)n1ccnc1 (stereo not given),1,0.0523
CCOc1ccc2nc(N3CCCC(C(=O)Nc4ccc(CN5CCC(C)CC5)cc4)C3)sc2c1 (stereo not given),0.968,-0.864
CCOC(=O)c1nc(Nc2ccccc2C)c2ccccc2n1,1.04,0.0474
Cc1cc(OCC(O)CN2CCN(c3ccc(F)cc3)CC2)cc(C)c1Cl (stereo not given),0.897,-2.27
COc1ccc(-c2csc(N3CCC(Cc4ccccc4)CC3)n2)cc1,0.965,-0.933
COc1ccc(-n2nc(C(=O)NCC(=O)Nc3cccc(Cl)c3)c3ccccc3c2=O)c(OC)c1,1.05,0.921
Cc1ccc(-n2ncnc2-c2ccc(Br)cc2)cc1Cl,0.998,-0.0274
COC(CNC(=O)CS(=O)(=O)Cc1nc(-c2ccccc2F)oc1C)OC,0.984,-0.301
Cc1ccc(NC(=O)C2CCN(c3nc4ccccc4[nH]3)CC2)cc1,0.891,-1.25
Cc1c(C(=O)Nc2ccc(F)cc2)oc2ccc(S(=O)(=O)N3CC(C)CC(C)C3)cc12 (stereo not given),0.998,-0.088
COc1cccc(-c2cc(C(=O)NCCN3CCOCC3)no2)c1,1.06,0.633
CCOc1ccc2nc(N3CCC(C(=O)NCCc4ccc(C)cc4)CC3)sc2c1,0.979,-0.0913
Fc1cccc(CSc2nc(NCC3CCCO3)c3ccccc3n2)c1 (stereo not given),0.61,-1.09
O=C(NCc1cccnc1)C1c2ccccc2C(=O)N1Cc1ccc(F)cc1 (stereo not given),1.01,0.357
COC(=O)c1cc2sc(Cl)cc2n1CC(=O)N1CCCC1,0.999,-0.0316
O=C(NCc1ccc(F)cc1)C1CCN(S(=O)(=O)c2cnc[nH]2)CC1,1,0.033
COc1ccccc1-c1cc2nc(C)c(CCC(=O)NCc3ccccc3)c(C)n2n1,1.01,0.551

Gathered by group, those above containing an NH in an aromatic ring
SMILES,CBX7 inh,CBX7 inh z-score
COc1ccccc1CNC(=O)c1cc(=O)[nH]c2ccc(S(=O)(=O)N3CCCCC3)cc12,0.985,-0.164
Cc1ccc2nc(N3CCC(C(=O)NC4CCCC4)CC3)[nH]c2c1,1.04,1.58
Cc1ccc(NC(=O)C2CCN(c3nc4ccccc4[nH]3)CC2)cc1,0.891,-1.25
O=C(NCc1ccc(F)cc1)C1CCN(S(=O)(=O)c2cnc[nH]2)CC1,1,0.033

Later entries:
SMILES,CBX7 inh,CBX7 inh z-score
CC(C)Cc1ccc2c(n1)sc1c(N)ncnc12,0.915&1.12,-0.336&0.537
Cc1ccc(-c2nnc(NCc3ccccc3)c3ccccc23)cc1S(N)(=O)=O,1.08,2.8
Cc1cccc(-n2c(Cc3cc(=O)[nH]c(=O)[nH]3)nnc2SCC(=O)Nc2cccc(F)c2)c1,1.03,1.01
CCC1CCCCN1CCCNC(=O)c1cc(-c2ccncc2)nc2ccccc12 (stereo not given),1.07,0.832
CC(=O)Nc1cc(-c2ccc(Cl)cc2)nn1-c1ccccc1,0.881,-1.42
Cc1cccc(NS(=O)(=O)c2ccc3c(c2)n(C)c(=O)c(=O)n3C)c1C,1.24,1.73
CC(C)c1cc(C(=O)NC(C)c2ccccc2)no1 (stereo not given),1.06,0.587
Cc1c(C(=O)N(Cc2ccc(C(C)C)cc2)C2CCS(=O)(=O)C2)oc2ccccc12 (stereo not given),0.764,-2.99
Cc1cc(N2CCC(C(=O)NC3CCCC(C)C3C)CC2)n2nc(C)c(-c3ccc(Cl)cc3)c2n1 (stereo not given),1.05,0.116
Cc1ccc(NC(=O)c2cnc3scc(C)n3c2=O)cc1,1.03,0.361
CC(=O)Nc1ccccc1-c1nc2ccc(C(=O)NCCc3ccccc3)cc2[nH]c1=O,0.947,-1.02
COc1cccc(-n2ccnc2SCC(=O)Nc2ccccc2F)c1,0.535,-0.617
CCC(C)c1ccc(OCC(=O)Nc2cccc(-c3nc4ncccc4o3)c2C)cc1 (stereo not given),1.03,0.394
CC(C)N(CCCNC(=O)c1csc2c1CCCCC2)Cc1ccccc1,1.06,1.93
CCc1cccc(NC(=O)Cn2nc(Cc3ccncc3)c3ccccc3c2=O)c1,1.06,0.626
O=C(NCCc1cccs1)C1CCN(c2ccc(N3CCOCC3)nn2)CC1,1.01,0.0829
COc1ccc(S(=O)(=O)N(CC(=O)Nc2ccc(OC)c(OC)c2)c2ccc(C)cc2)cc1,0.892,-2.5
COc1ccc(Cn2c(=O)c3cccnc3n(Cc3ccc(C)cc3C)c2=O)cc1,1.06,1.15
Cc1ccccc1NC(=O)C1CCC(CNS(=O)(=O)c2cccc3cccnc23)CC1 (stereo not given),1.01,0.373
COc1ccc(C(=O)NCc2nnc(SCC(=O)N3CCCCCC3)o2)cc1OC,0.967,-0.948
O=C(NCc1cccs1)C1CCCN(S(=O)(=O)c2cccc3cccnc23)C1 (stereo not given),1,0.0993
COc1ccccc1CNC(=O)c1cc(=O)[nH]c2ccc(S(=O)(=O)N3CCCC3)cc12,0.962,-0.43
CC1CCN(S(=O)(=O)c2ccc3nc(-c4cccnc4)cc(C(=O)NC4CCCCC4)c3c2)CC1,1.24,1.57
CN1CC(=O)Nc2cc(C(=O)NCCCN3CCN(Cc4ccccc4)CC3)ccc21,1.01,0.00562
Cc1sc(NC(=O)c2ccc(-c3ccccc3)cc2)nc1-c1ccccc1,1.24,3.76
COc1ccc(OCc2nc3ccccc3n2C(C)C)cc1,1.02,0.414
Cc1cc(C(=O)NCc2ccccn2)n(-c2ccccc2)n1,0.967,-0.833
CCCOc1ccccc1NC(=O)c1c(-c2ccccc2)noc1C,1.18,4.81
O=C(CCCN1C(=O)CSc2ncccc21)NCCC1=CCCCC1,0.881,-1.69
COc1ccc(C(C(=O)NC2CCCC2)N2CC(C)CC(C)C2)cc1 (stereo not given),1.02,0.751
COc1ccc(N2Cc3ccccc3OC(C)C2=O)cc1 (stereo not given),0.988,-0.27
COc1ccc(C2C(C(=O)Nc3ccc(C)cn3)CC(=O)N2c2ccc(OC)cc2)cc1 (stereo not given),1.01,0.239
O=C(NCCCN1CCOCC1)c1cc(Sc2ccccc2C(F)(F)F)nc2ccccc12,0.945,-1.1
Cc1cc(C)c2nc(N3CCC(C(=O)N4CCN(c5ccc(F)cc5)CC4)CC3)sc2c1,1.02,0.384
COc1cccc(NS(=O)(=O)c2ccc3[nH]cc(C(=O)N(C)C4CCCCC4)c(=O)c3c2)c1,0.985,-0.0958
CCn1cc(C(=O)Nc2ccc3c(c2)OCCO3)c(=O)c2ccc(C)nc21,1.03,0.357
O=C(c1cc2c(s1)-c1ccccc1OC2)N1CCCN(Cc2ccccc2F)C1,1.14,1.9
Clc1ccc2nc(-c3c[nH]c4ccccc34)c(Nc3ccc4c(c3)OCCO4)n2c1,0.535,-17.4
COc1ccc(C2=NN(CC(=O)Nc3ccc(Cl)cc3F)C(=O)CC2)cc1,1.07,0.897
Cc1ccc(-c2nc(C(=O)N3CC(C)CC(C)C3)c(C)o2)cc1 (stereo not given),1.15,1.24
CCOC(=O)c1cnc2ccccc2c1Nc1ccc(OCC)cc1,0.64,-3.87
COC(=O)C(NC(=O)CCc1c(C)nc2c(-c3ccc(F)cc3)c(C)nn2c1C)C(C)C (stereo not given),1.01,0.33
COCCCN1C(=O)N(c2ccc(F)cc2)C(=O)C1CC(=O)Nc1ccccc1 (stereo not given),1.3,1.21
COC(=O)CNC(c1ccccc1)c1cc(Br)ccc1NC(=O)c1ccccc1 (stereo not given),1.05,1.09
Cc1ccc2c(c1)NC(=O)C(CC(=O)Nc1c(F)c(F)cc(F)c1F)O2 (stereo not given),1.08,3.05
CC(=O)Oc1ccc(N2C(=O)C3C4c5ccccc5C(C(C)=O)(c5ccccc54)C3C2=O)cc1 (stereo not given),1.07,0.707
COc1cccc(CN2CCN(Cc3cccc4ccccc34)CC2)c1OC,0.834,-1.99
